StopGo reporter – FMDV 2A StopGo reporter, luciferase signal. human cells with a luciferase reporter of 2A StopGo recoding; control for the full effect not named in the record. 410,000 tested, 1.2% active. AID 1159524. Potency, µM (series often up to 57.9 µM), for the others: at the highest dose signal change, negative = less light; active = well fitted falling curve with a large enough effect; inconclusive = small, poorly fitted or top-dose-only effect; inactive = no such curve, though single readings can be large or run the other way; tested in HEK293T cells; also: nearly all actives have a fitted effect of over 45% in size; luciferase light after 4 h
RE007 growth inh – less growth of the S. pombe RE007 Vpr strain; Potency, µM (top dose mostly 92.2 µM), without a hit: top-dose activity change, negative = less growth; AID 651644; 360,000 tested, 0.21% active; S. pombe RE007 Vpr strain, BacTiter-Glo ATP luminescence, 24 h; control for the full effect not named in the record; active = well fitted falling curve with a large enough effect; inconclusive = small, poorly fitted or top-dose-only effect; inactive = no such curve, though single readings can be large or run the other way;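 also: nearly all actives have a fitted effect of over 50% in size; the assay follows cell death caused by Vpr and the record does not say whether a fall means rescue or toxicity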
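Fission yeast strain RE007, carrying one chromosomally integrated HIV-1 vpr copy, was seeded at OD 0.01 in PMG+AL medium with 23 nL pinned compound. After 24 h at 30 °C and 99% humidity, viability was read by BacTiter-Glo luminescence.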
* marks the source's active call; other numbers are inactive results; ? = inconclusive; [ ] = remark or other dose. % is scaled to controls: 0 for no effect and ±100 for the full control effect; potency is read from the fitted curve at half-maximal effect.

[1] COCCNc1nc(NCCOC)c2sc(-c3ccccc3)cc2n1
[2] Cc1ccccc1OCCC(=O)OCC(=O)N1c2ccccc2NC(=O)C1(C)C
[3] CCN(CC)C(=O)C1=C(C)N(CCC2=CCCCC2)C(=O)C(CC(=O)NCc2cccc3ccccc23)C1 (stereo not given)
[4] CC(=O)N1C[C@H]2CON(C)[C@H]2C[C@H]1c1ccccc1Br
[5] Cc1cccc(NC(=O)C2CCCN(S(=O)(=O)c3c(C)nn(C)c3C)C2)c1 (stereo not given)
[6] CC(C)(C)c1ccc(CC(=O)N2CCC2(C)C(=O)Nc2cccc3cccnc23)cc1 (stereo not given)
[7] C[C@H](CO)N1C[C@H](C)[C@H](CN(C)C(=O)Nc2cccc(C(F)(F)F)c2)OCc2cnnn2CCCC1=O
[8] COC(=O)c1ccc2nc(-c3cccc(Cl)c3)c(Cc3cccc(Cl)c3)n2c1

Compound	1	2	3	4	5	6	7	8
StopGo reporter	-11%	-21%	0%	-6%	0%	-9%	-20%	0%
RE007 growth inh	-15%	4%	1%	11%	-2%	-10%[18.4 µM]	-7%	-1%

[9] CCOC(=O)c1cc(OCC)c2c(ccc3ccccc32)n1
[10] COCCN(C(=O)c1cc(CN2C(=O)c3ccccc3C2=O)ccc1OC)c1c(N)n(CC(C)C)c(=O)[nH]c1=O
[11] CCN(C(=O)COC(=O)/C=C/c1ccc(OC)c(OC)c1)c1c(N)n(Cc2ccccc2)c(=O)[nH]c1=O
[12] O=[N+]([O-])c1ccc(NN=CC2CCCCCC2)c([N+](=O)[O-])c1
[13] Cc1ccc(NC(=O)CC[C@H]2O[C@@H](n3cnc4c(NC(=O)c5ccccc5)ncnc43)[C@H](O)[C@@H]2O)cc1C
[14] O=C(Nc1cccc2c1[nH]c(=O)c1ccccc12)C(F)(F)F
[15] CN(C)C(=O)c1cccc(-c2cnc3c(NC=O)cc(-c4cc(F)c(F)c(F)c4)cn23)c1
[16] CCOc1ccc(/C=N/OCC(=O)Nc2cc(S(=O)(=O)N3CCOCC3)ccc2OC)cc1

Compound	9	10	11	12	13	14	15	16
StopGo reporter	-12%	-3%	-4%	-18%	-12%	-6%	-27%	-16%
RE007 growth inh	-1%	1%	4%	-3%	2%	-2%	-18%	1%

[17] COC(=O)c1cccc(CN2C(=O)C(C)Oc3ccc(C)cc32)c1 (stereo not given)
[18] C[C@@H]1CCCCO[C@H](CN(C)Cc2ccccc2)[C@@H](C)CN([C@H](C)CO)C(=O)c2cc(NS(=O)(=O)c3ccc(Cl)cc3)ccc2O1
[19] COC1=CC(=O)C(O)=C(CCCCCCC/C=C/CCCCCCCC2=C(O)C(=O)C=C(OC)C2=O)C1=O
[20] Cc1ccccc1NC(=O)Nc1nc(CN)cs1
[21] O=C(Nc1ccc2c(c1)OCO2)c1cc(C2CCCN(C(=O)C3CCCCC3)C2)on1 (stereo not given)
[22] CC1(C(=O)NS(=O)(=O)c2cccs2)CCN1C(=O)Cc1ccccc1 (stereo not given)
[23] Cc1cc(Br)c2nc(-c3ccccc3)c(Cc3cccc(Cl)c3)n2c1
[24] OC(c1ccccc1)c1ncc(-c2ccc(Oc3ccccc3)cc2)[nH]1 (stereo not given)

Compound	17	18	19	20	21	22	23	24
StopGo reporter	?	-29%	-27%	-12%	-30%	7%	-20%	21%
RE007 growth inh	-20%	9%	-5%	7%	-18%	13%	-2%	20%

[25] COc1ccc(S(=O)(=O)N2CCC[C@H]2C(=O)N2CCC[C@H]2C(=O)NCc2ccccc2)cc1C
[26] O=C(Nc1ccccc1)c1c(O)[nH]c(=O)[nH]c1=O
[27] CCCCNC(=O)C[C@@H]1C[C@@]2(C(=O)OC)CC(C)(C)CC=C2N(Cc2ccccc2)C1=O
[28] CNC[C@H]1Oc2cc(Br)ccc2S(=O)(=O)N([C@H](C)CO)C[C@H]1C
[29] C[C@@H]1CN([C@@H](C)CO)C(=O)CCCn2nncc2CO[C@H]1CN(C)C(=O)Nc1ccc(F)cc1
[30] COC(=O)N(C)C[C@@H]1OCc2cnnn2CCCC(=O)N([C@@H](C)CO)C[C@H]1C
[31] Cc1cccnc1Oc1ncccc1N
[32] O=C(NCCOc1ccccc1)C1CCN(C(=O)Nc2ccccc2)CC1

Compound	25	26	27	28	29	30	31	32
StopGo reporter	-14%	9%	6%	-7%	12%	-24%	-2%	-21%
RE007 growth inh	-5%	20%	0%	-2%	19%	9%	-10%	-9%

14 entries from above, with two lines to a compound:
Below each compound: StopGo reporter, RE007 growth inh
18. C[C@@H]1CCCCO[C@H](CN(C)Cc2ccccc2)[C@@H](C)CN([C@H](C)CO)C(=O)c2cc(NS(=O)(=O)c3ccc(Cl)cc3)ccc2O1
  -29%, 9%
19. COC1=CC(=O)C(O)=C(CCCCCCC/C=C/CCCCCCCC2=C(O)C(=O)C=C(OC)C2=O)C1=O
  -27%, -5%
20. Cc1ccccc1NC(=O)Nc1nc(CN)cs1
  -12%, 7%
21. O=C(Nc1ccc2c(c1)OCO2)c1cc(C2CCCN(C(=O)C3CCCCC3)C2)on1 (stereo not given)
  -30%, -18%
22. CC1(C(=O)NS(=O)(=O)c2cccs2)CCN1C(=O)Cc1ccccc1 (stereo not given)
  7%, 13%
23. Cc1cc(Br)c2nc(-c3ccccc3)c(Cc3cccc(Cl)c3)n2c1
  -20%, -2%
24. OC(c1ccccc1)c1ncc(-c2ccc(Oc3ccccc3)cc2)[nH]1 (stereo not given)
  21%, 20%
25. COc1ccc(S(=O)(=O)N2CCC[C@H]2C(=O)N2CCC[C@H]2C(=O)NCc2ccccc2)cc1C
  -14%, -5%
26. O=C(Nc1ccccc1)c1c(O)[nH]c(=O)[nH]c1=O
  9%, 20%
27. CCCCNC(=O)C[C@@H]1C[C@@]2(C(=O)OC)CC(C)(C)CC=C2N(Cc2ccccc2)C1=O
  6%, 0%
28. CNC[C@H]1Oc2cc(Br)ccc2S(=O)(=O)N([C@H](C)CO)C[C@H]1C
  -7%, -2%
29. C[C@@H]1CN([C@@H](C)CO)C(=O)CCCn2nncc2CO[C@H]1CN(C)C(=O)Nc1ccc(F)cc1
  12%, 19%
30. COC(=O)N(C)C[C@@H]1OCc2cnnn2CCCC(=O)N([C@@H](C)CO)C[C@H]1C
  -24%, 9%
31. Cc1cccnc1Oc1ncccc1N
  -2%, -10%

(next part)
[33] CCCNC(=O)C1(C)CCCN(Cc2ccc(Oc3ccccc3)cc2)C1 (stereo not given)
[34] COC(=O)c1ccc(CC2(C)C(=O)Nc3ccc(OC(F)(F)F)cc32)o1 (stereo not given)
[35] CCCNC(=O)C1(C)CCN(Cc2ccc(OCc3ccccc3)cc2)C1 (stereo not given)
[36] CSc1ccc(NC(=O)C2(C)CCN2C(=O)Cc2ccc(C(C)(C)C)cc2)cc1 (stereo not given)
[37] CC1(C(=O)NS(=O)(=O)c2cccc(C#N)c2)CCN1C(=O)Cc1ccc(-c2ccccc2)cc1 (stereo not given)
[38] CC(=O)Nc1cc(-c2cccc(C)c2)cn2c(-c3ccc(S(C)(=O)=O)cc3)cnc12
[39] COc1ccc(CC(N)c2csc(NC(=O)Nc3ccc(OC)cc3)n2)cc1 (stereo not given)
[40] CC(O)(c1cccc(F)c1)c1nc(-c2ccncc2)cs1 (stereo not given)

Compound	33	34	35	36	37	38	39	40
StopGo reporter	-22%	-22%	2%	?	-16%	-28%	-23%	?
RE007 growth inh	-3%[18.4 µM]	26%	-14%	4%[18.4 µM]	0%	10%[18.4 µM]	-6%	13%

[41] COc1cccc(CNc2nc3cc(-c4cnn(Cc5ccccc5)c4)sc3c(=O)n2C)c1
[42] COc1ccc(CN2C[C@@H](CO)O[C@@H](n3cnc4c(NCCO)ncnc43)C2)cc1
[43] COC(=O)[C@]12CCCCC=C1N(Cc1ccc3c(c1)OCO3)C(=O)[C@H](CC(=O)NCC1CCCCC1)C2
[44] COCc1ccc(C(=O)N2CCCC(N(C)CCc3ccccc3)C2)s1 (stereo not given)
[45] Cc1ccc(S(=O)(=O)N2CCN(C(=O)COC(=O)COc3ccccc3C(C)C)CC2)c(C)c1
[46] CC[C@H]1c2ccccc2[C@@H]2CC[C@H]1N2c1ccccc1
[47] C[C@@H]1CN([C@H](C)CO)C(=O)CCCn2nncc2CO[C@@H]1CN(C)C(=O)c1ccncc1
[48] O=C(CCCN1C(=O)/C(=C/c2ccc(F)cc2)SC1=S)Nc1ccc(C(=O)O)cc1

Compound	41	42	43	44	45	46	47	48
StopGo reporter	14µM*	2%	18%	-7%	-12%	-18%	-14%	-5%
RE007 growth inh	-11%	7%	-2%	11%	-4%	-3%	-16%	9%

[49] CCCCCCN1C[C@@H](n2cc(C3CC3)nn2)[C@H](O)C[C@@H]1c1ccc(Cl)cc1
[50] CN(CC(=O)Nc1ccc(F)c(F)c1F)C(=O)CCN1C(=O)C2CC=CCC2C1=O (stereo not given)
[51] Cc1cccc(C)c1NC(=O)CN1CCN(c2ccc(C(F)(F)F)cn2)CC1
[52] CC(=O)OC1CCC2C3CCc4cc(OP(=O)(N5CC5)N5CC5)ccc4C3CCC12C (stereo not given)
[53] CCNC(=O)C1CCCN(C(=O)c2ccc(OC(F)F)cc2)CC1 (stereo not given)
[54] O=c1cc(CO)oc(C(Nc2ccccn2)c2ccccc2F)c1O (stereo not given)
[55] Cc1cc(=O)oc2c(N)nccc12
[56] Cc1cc(C(C)(C)C)cc(CN2CCN(S(=O)(=O)c3cccs3)CC2)c1O

Compound	49	50	51	52	53	54	55	56
StopGo reporter	?	-16%	-23%	-27%	-14%	-10%	-13%	?
RE007 growth inh	-26%	6%	-8%	7%	5%	-6%	-10%	14%

[57] Cc1cc2nc(-c3ccc(Cl)cc3)c(CC(C)(C)C)n2c(C)c1Br
[58] CCc1nc2ccc(C(=O)NCCc3c[nH]c4ccccc34)cn2c1N(C)Cc1nccn1C
[59] COc1cc(C(=O)N2Cc3cc4ccccc4nc3C2C)cc(OC)c1OC (stereo not given)
[60] Cc1cnc(-c2nc3ccccc3n2C(C)C(=O)Nc2c(C)cccc2C)cn1 (stereo not given)
[61] O=CNc1cc(-c2ccc(C(=O)N3CCOCC3)cc2)cn2c(-c3ccc(F)cc3)cnc12
[62] O=C(COC(=O)c1ccc(OC(F)F)cc1)NCC1CCCO1 (stereo not given)
[63] CC(=O)Nc1ccc(C(=O)OCC(=O)NC(=O)NCc2ccccc2)cc1
[64] NC(c1csc(Nc2nncc3ccccc23)n1)C1CCCCC1 (stereo not given)

Compound	57	58	59	60	61	62	63	64
StopGo reporter	-25%	-12%	-17%	-12%	-23%	-11%	16%	-15%
RE007 growth inh	-7%	0%	-10%	-3%	?	-10%	-25%	-10%[18.4 µM]

[65] OC(Cc1ccccc1Br)c1ncc(-c2cccc(C(F)(F)F)c2)[nH]1 (stereo not given)
[66] Clc1cccc(Cc2c(-c3ccco3)nc3c4ccccc4ccn23)c1
[67] NC(Cc1ccc(Cl)cc1)c1csc(NC(=O)NCC2CCCCC2)n1 (stereo not given)
[68] CCNC(=O)C1(C)CCCN(C(=O)COCc2ccccc2)C1 (stereo not given)
[69] CC(C)c1ccc(Nc2n[nH]c(=S)s2)cc1
[70] COc1ccc(-n2c(COc3ccc(Cl)cc3Cl)n[nH]c2=S)cc1
[71] O=C1CCCN1CC(O)CS(=O)(=O)Cc1ccc(Cl)cc1 (stereo not given)
[72] COCCNC(=O)C1(C)CCCN(Cc2cccc(F)c2)C1 (stereo not given)

Compound	65	66	67	68	69	70	71	72
StopGo reporter	3%	32%[activator]	-6%	5%	9%	-16%	-17%	-6%
RE007 growth inh	-6%[18.4 µM]	-19%	11%	-9%	9%	-4%	6%	3%

[73] CNc1ccc(-c2cccc(C(=O)N3CCOCC3)c2)cn1
[74] CC(C)(C)CC(C)(C)N=C1Nc2ccccc2NC12C[C@H]1CCC(=O)N3CC[C@@H](C2)[C@@H]13 (stereo not given in full)
[75] O=C(O)C(=Cc1ccc([N+](=O)[O-])cc1)CCc1ccccc1
[76] Cc1cc2nc(-c3cccc(Cl)c3)c(Cc3ccsc3)n2c(C)c1Br
[77] CCc1nc2ccc(C(=O)NCc3cccs3)cn2c1N(CC)Cc1cccc(Br)c1
[78] CC(C)C[C@H]1CNC(=S)N1CC1CCN(CC2CCCC2)CC1
[79] COc1cc(Nc2ccn3nc(-c4ccccc4Cl)cc3n2)cc(OC)c1OC
[80] CCOc1ccc(-c2ccc(C3=CC(=O)C[C@H](c4ccc(F)cc4)C3)cc2)cc1

Compound	73	74	75	76	77	78	79	80
StopGo reporter	1%	-16%	-16%	-12%	-11%	-4%	-6%	-5%
RE007 growth inh	-3%	-18%	-17%	1%	-9%[18.4 µM]	-14%	15%	6%

High-throughput results deposited in PubChem BioAssay by National Center for Advancing Translational Sciences (NCATS).

This is a subset. The share of hits here may be higher or lower than overall.
